VCAM-1 up imaging: enhancers of VCAM-1 display on endothelial cells, imaging, high-content imaging, pooled HUVEC, TNFa stimulus (AID 457); Pooled HUVEC, TNFa-induced VCAM-1 immunofluorescence imaging; hits of this screen are not shown here; actives 0.2% (n = 10,000); calls only;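 active = a top-ranked rise in VCAM-1 staining upheld on image or statistical review; inactive = the rest, including candidates rejected on review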;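 also: compounds tested at 5 µM in the well; cells exposed to compound for 24 hours before fixing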
VCAM-1 down: inhibitors of TNFa-induced VCAM-1 surface display, cell-based, plate reader, pooled HUVEC, TNFa stimulus (AID 454); HUVEC TNFa-induced VCAM-1 surface immunofluorescence, plate reader; numbers were filed only for top-ranked candidate wells; actives 0.2% (n = 10,000); inhibition, % at 5 µM;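 active = compound among top-ranked inhibitors of TNF-induced VCAM-1 adhesion protein staining, with the hit upheld by image or statistical review; inactive = the rest, including hits rejected on review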;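 also: 0% = TNFa with vehicle and 100% = cells without TNFa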
FPRL1 ligand: human FPRL1 ligands by binding competition, primary screen, cell-based, FPR counter-screen, flow cytometry; N-formyl peptide receptor 2 (Homo sapiens), P25090; FPRL1-expressing cells, fluorescent ligand binding inhibition; inhibition, %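 (tested at 6.7 µM)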; actives 0.3% (n = 24,000); AID 441, 2006;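 also: 0% = buffer alone and 100% = receptor blocker peptide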
Target sequence (P25090 whole entry, looked up): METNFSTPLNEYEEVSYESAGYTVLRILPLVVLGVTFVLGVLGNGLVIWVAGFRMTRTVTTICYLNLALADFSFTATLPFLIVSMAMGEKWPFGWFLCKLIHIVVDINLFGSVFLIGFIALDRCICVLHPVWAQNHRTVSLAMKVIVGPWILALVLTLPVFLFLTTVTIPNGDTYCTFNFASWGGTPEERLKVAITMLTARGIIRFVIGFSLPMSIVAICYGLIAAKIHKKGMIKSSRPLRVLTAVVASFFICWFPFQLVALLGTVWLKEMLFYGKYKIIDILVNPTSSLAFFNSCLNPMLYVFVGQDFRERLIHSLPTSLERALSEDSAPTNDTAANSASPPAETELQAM
FPR ligand: human FPR ligands by binding competition, primary screen, cell-based, FPRL1 counter-screen, flow cytometry; actives 0.74% (n = 24,000); FPR-expressing cells, fluorescent ligand binding; fMet-Leu-Phe receptor (Homo sapiens), P21462; AID 440, 2006; inhibition, %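 (tested at 6.7 µM)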;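 also: 0% = buffer wells and 100% = receptor blocker peptide wells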
Target sequence (P21462 whole entry, looked up): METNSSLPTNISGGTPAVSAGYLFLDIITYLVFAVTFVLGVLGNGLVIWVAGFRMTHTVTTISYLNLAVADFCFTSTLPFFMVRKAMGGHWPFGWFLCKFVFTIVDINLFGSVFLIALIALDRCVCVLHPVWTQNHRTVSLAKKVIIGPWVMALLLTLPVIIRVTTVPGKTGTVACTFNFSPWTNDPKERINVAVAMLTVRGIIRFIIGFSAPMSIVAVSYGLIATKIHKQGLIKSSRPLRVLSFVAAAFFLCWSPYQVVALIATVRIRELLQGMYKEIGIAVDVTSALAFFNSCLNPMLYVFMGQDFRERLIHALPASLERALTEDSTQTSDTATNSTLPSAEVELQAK
VCAM-1 imaging: inhibitors of TNFa-induced VCAM-1 surface display, imaging, high-content imaging, pooled HUVEC, TNFa stimulus (AID 456); inhibition, % at 5 µM; hits with a dose series show IC50 in µM; HUVEC TNFa-induced VCAM-1 surface expression, immunofluorescence imaging; numbers were filed only for top-ranked candidate wells; actives 0.2% (n = 10,000);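 active = top tenth filtered wells with inhibition above zero that passed visual or statistical confirmation; inactive = the rest, including hits rejected on review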;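 also: 0% = stimulated vehicle wells and 100% = unstimulated cells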
Starred values were filed as active, the others as inactive; i = inactive; · = no result given.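 The calls were made as follows, unless noted: active = mean above 30%; inconclusive = self-fluorescent; inactive = the rest.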 Only part of the results is shown. The share of hits here may be higher or lower than overall.

canonical_smiles	FPRL1 ligand	VCAM-1 up imaging	VCAM-1 imaging	VCAM-1 down	FPR ligand
Cc1ccc(S(=O)(=O)NCCOC(=O)Nc2sc(=S)n(C)c2C)cc1	2	i	i	i	-4
COCCNC(=O)C1c2ccccc2C(=O)N(CCOC)C1c1ccc(F)cc1 (stereo unspecified)	9	·	·	·	2
COc1cc(OC)cc(C(=O)N2c3ccc(F)cc3CCC2C)c1 (stereo unspecified)	-4	i	i	i	1
COc1ccc(CNC(=O)Cc2nn(C)c(=O)c3ccccc23)cc1	15	·	·	·	16
CCCOc1ccc2c(=O)c(N3C(=O)c4ccccc4C3=O)c(C)oc2c1	23	·	·	·	24
COc1ccc(CN2C(=O)c3cccnc3C2Nc2ccc(OC)c(Cl)c2)cc1 (stereo unspecified)	8	·	·	·	5
CCC(=O)Nc1ccc(C(=O)Nc2ccc3c(c2)OCO3)cc1	-1	·	·	·	4
Cc1oc(-c2ccc(Cl)cc2)nc1CN1CCC(C(=O)NCc2ccco2)CC1	4	·	·	·	0
COc1ccc(C2C(C(C)=O)=C(O)C(=O)N2c2nccs2)cc1OC (stereo unspecified)	2	·	·	·	3
COC(=O)C1C(=O)C2=C(CC1C)NC(C)=C(C(=O)OC1CCCCC1)C2c1ccc(N(C)C)cc1 (stereo unspecified)	1	·	·	·	11
CCOC(=O)N1CCC(Nc2nc3ccccc3n3nnnc23)CC1	-4	·	·	·	-12
COc1ccc(/C(O)=C2/C(=O)C(=O)N(CCN3CCOCC3)C2c2ccccn2)cc1 (stereo unspecified)	2	·	·	·	-3
CC1CCCCN1c1nnc(NC(=O)Cn2c(=O)oc3ccccc32)s1 (stereo unspecified)	10	·	·	·	4
CCCc1cc(C(=O)Nc2sc(C)c(C)c2C(=O)OCC)no1	0	i	i	i	-2
Cc1ccccc1C1CC(c2ccccc2)Nc2ncnn21 (stereo unspecified)	-2	i	i	i	-3
COc1ccc(NC(=O)CN2CC(c3ccccc3)CC2=O)cc1OC (stereo unspecified)	-1	·	·	·	-2
COc1ccc(NC(=O)CSc2c(C)nn(-c3nnc(C)c(=O)[nH]3)c2C)cc1	4	i	i	i	-7
CCN(c1ccccc1)S(=O)(=O)c1ccc(F)cc1C	1	i	i	i	3
CC(CCc1ccccc1)NC(=O)CSc1nc(N)cc(N)n1 (stereo unspecified)	-4	i	i	i	0
c1ccc(-c2oc3ncnc(NCCN4CCOCC4)c3c2-c2ccccc2)cc1	-2	i	108%	88	-4
CCC1Oc2ccccc2N(CC(=O)NCCN2CCc3ccccc3C2)C1=O (stereo unspecified)	3	·	·	·	-2
Cc1cccc(C2c3c(n(C)c(=O)n(C)c3=O)N=C3c4ccccc4C(=O)C32)c1 (stereo unspecified)	-4	i	i	i	7
CCC1CCCCN1CCCNC(=O)CC1Oc2ccccc2NC1=O (stereo unspecified)	2	·	·	·	-3
S=C(NCC1CCCO1)n1nnc2ccccc21 (stereo unspecified)	6	i	8.8µM*	104*	4
O=C(NC1CCCCCC1)C1CCCN1S(=O)(=O)c1cccc2cccnc12 (stereo unspecified)	3	·	·	·	-4

canonical_smiles	FPRL1 ligand	VCAM-1 up imaging	VCAM-1 imaging	VCAM-1 down	FPR ligand
COC(=O)CN1C(=O)C2(C(C#N)=C(N)Oc3c2c(C)nn3-c2ccccc2)c2ccccc21 (stereo unspecified)	-4	i	i	i	5
O=C(COc1ccc(S(=O)(=O)NC2CCCCC2)cc1)Nc1ccc2c(c1)OCCO2	-4	·	·	·	0
CCOCCn1cnc2sc(C(=O)NCC(=O)OCC)c(C)c2c1=O	1	i	i	i	-4
Cc1nn(C)c(C)c1S(=O)(=O)N1CCCC(C(=O)N2CCN(c3ccc(Cl)cc3)CC2)C1 (stereo unspecified)	-4	i	i	i	-3
Cc1ccccc1-n1c(Cn2c(=O)sc3ccccc32)nnc1SC(C)C	-3	·	·	·	11
Cc1ccc(S(=O)(=O)N(CC(=O)O)Cc2ccccc2)cc1	6	·	·	·	0
CCCCNC(=O)CCn1c(=O)c2ccccc2n(CC(=O)N2CC(C)CC(C)C2)c1=O (stereo unspecified)	-7	·	·	·	3
Cc1ccc(NC(=O)CN(C)S(=O)(=O)c2cnc[nH]2)cc1C	-2	·	·	·	-12
O=C(Nc1ccccc1)N(Cc1cccnc1)Cc1ccco1	4	i	i	i	4
Cc1c(C(=O)Nc2ccc(C(=O)O)cc2)cnn1C	12	·	·	·	0
Cc1cc(C)n(-c2ncc(-c3ccccc3)nn2)n1	0	·	·	·	-1
CCOc1ccc(C2c3c(oc4cc(C)c(C)cc4c3=O)C(=O)N2CCCN(C)C)cc1OC (stereo unspecified)	5	·	·	·	1
C/C(Cl)=C\Cn1c(NCCc2ccccc2)nc2c1c(=O)n(C)c(=O)n2C	-14	i	i	i	5
CC1(C)CC(=O)c2cc(C(=O)NC3CCSC3=O)c(=O)n(-c3ccccc3)c2C1 (stereo unspecified)	-3	·	·	·	0
COc1ccc(C2C(C(=O)O)c3ccccc3C(=O)N2C)cc1Br (stereo unspecified)	5	·	·	·	6
Cc1cccc(CCNS(=O)(=O)c2cnc[nH]2)c1	-2	·	·	·	-3
COc1ccccc1-c1cc(C(=O)NCc2ccc(F)cc2)no1	-3	·	·	·	0
O=C(c1ccc2c(c1)C(=O)N(Cc1ccco1)C2O)N1CCOCC1 (stereo unspecified)	3	·	·	·	2
COc1ccc2c(C(F)(F)F)cc(=O)oc2c1C	7	i	i	i	19
CCCN(CCC)C(=O)CSc1nc2n[nH]c(C)c2c(=N)n1-c1ccc(OCC)cc1	2	·	·	·	4
CCCCN(CCCC)S(=O)(=O)c1ccc(C(=O)Nc2nnc(COC)o2)cc1	-4	·	·	·	-4
COc1cccc(CNC(=O)C2CCN(Cc3cnn(-c4ccccc4)c3-n3cccc3)CC2)c1	3	·	·	·	0
COc1ccc(C2CC(C(F)(F)F)n3nc(C(=O)N(C)Cc4cn(C)nc4C)c(Cl)c3N2)cc1 (stereo unspecified)	0	·	·	·	-2
CCOC(=O)c1ccc(NS(=O)C23CC4CC(CC(C4)C2)C3)cc1 (stereo unspecified)	-8	i	i	i	-1
Cc1ccc(/C(O)=C2/C(=O)C(=O)N(CCN3CCOCC3)C2c2cccnc2)cc1 (stereo unspecified)	24	·	·	·	18

canonical_smiles	FPRL1 ligand	VCAM-1 up imaging	VCAM-1 imaging	VCAM-1 down	FPR ligand
N#C[C@@H]1[C@@H]2C(=O)N(c3ccc4c(c3)OCCO4)C(=O)[C@@H]2C2c3ccccc3C=CN21 (stereo partly specified)	-17	i	i	i	-22
O=C(CSC1=NC(=O)C(Cc2ccccc2)C(=O)N1)NC1CCCCC1 (stereo unspecified)	2	i	i	i	-4
CCOC(=O)C(C)Sc1nnc(Cc2cc(=O)[nH]c(=O)[nH]2)n1-c1ccc(OCC)cc1 (stereo unspecified)	-2	·	·	·	-1
CCCC1(CCC)NC(=O)NC1=O	1	i	i	i	-3
CCCCOc1ccc(C(=O)Oc2ccc(C)nc2)cc1	0	·	·	·	-3
O=C1NC(c2cccs2)Nc2ccccc21 (stereo unspecified)	5	i	i	i	-4
Cc1ccc(C(=O)CCC2CCCC2=O)cc1 (stereo unspecified)	-4	i	i	i	-4
COc1cccc(NC(=O)C2CCN(c3ncccn3)CC2)c1	2	i	i	i	-6
CCOC(=O)c1ccc(Oc2nc(NC(C)(C)C)nc(N(C)C)n2)cc1	-3	·	·	·	0
O=C(Nc1cccc(NC(=O)c2cccnc2)c1)c1cccnc1	-4	i	i	i	0
CSc1nc2n(n1)C(c1cc(Br)ccc1F)C(C(=O)N(C)C)=C(C)N2 (stereo unspecified)	-5	·	·	·	15
O=C(CSC1=Nc2ccccc2C2=NC(CC(=O)NC3CCCCC3)C(=O)N12)NCc1ccco1 (stereo unspecified)	1	·	·	·	4
Cc1cc(C)n(Cc2cccc(F)c2)c(=O)c1C#N	-3	·	·	·	-6
COc1ccc(N2C(=O)CCC(C(=O)Nc3ccccn3)C2c2ccc(OC)c(OC)c2)cc1 (stereo unspecified)	7	·	·	·	-3
O=C(NCc1cccs1)c1ccc2c(c1)ncn2C1CCCC1	3	·	·	·	8
COc1ccc(OC)c2[nH]c(=O)c(CCNC(=O)c3ccc(S(=O)(=O)N4CCCCC4)cc3)cc12	-4	·	·	·	1
Cc1ccc2c(c1)NC(=O)C(CC(=O)NCc1ccc(F)cc1)O2 (stereo unspecified)	2	·	·	·	5
CC(C)Cn1cc(C(=O)NCc2cccs2)c2c3ccccc3n(C)c2c1=O	-5	·	·	·	1
NC(=O)CSC1=Nc2ccccc2C2=NC(CC(=O)NCc3cccs3)C(=O)N12 (stereo unspecified)	-5	·	·	·	-6
Cc1onc(-c2ccccc2Cl)c1C(=O)NC1CCS(=O)(=O)C1 (stereo unspecified)	-4	·	·	·	-4
COC(=O)c1ccc(Sc2ccc(C)cc2)c(N)c1	-5	·	·	·	-3
Cn1cccc1Cc1nnc(SCC(=O)Nc2nc3ccccc3s2)n1CCc1ccccc1	7	·	·	·	6
CCCOc1ccc(N2C(=O)CC(N3CCN(c4ccccc4OC)CC3)C2=O)cc1 (stereo unspecified)	2	·	·	·	0
COc1ccc(NC(=O)CC2Sc3ncnn3C2=O)cc1 (stereo unspecified)	-3	i	i	i	-3
CC(C)CNS(=O)(=O)c1ccc(OCC(=O)Nc2ccc3c(c2)OCO3)c(Cl)c1	-4	i	i	i	4

canonical_smiles	FPRL1 ligand	VCAM-1 up imaging	VCAM-1 imaging	VCAM-1 down	FPR ligand
CC(NC(=O)Nc1ccccc1)C(c1cccs1)N1CCOCC1 (stereo unspecified)	0	i	i	i	1
Cn1c(=O)[nH]c(=O)c2c1nc(CN1CCOCC1)n2Cc1ccccc1	2	·	·	·	7
COc1ccc(OC)c(C2=NOC(C(=O)NCC3CCCO3)C2)c1 (stereo unspecified)	3	·	·	·	-2
O=C(NCc1ccco1)c1ccc2c(=O)n(Cc3ccco3)c(SCC(=O)N3CCCC3)nc2c1	-1	·	·	·	12
CCn1cc(C(=O)NCCC2=CCCCC2)c(=O)c2cc(S(=O)(=O)N(C)C)ccc21	-3	i	i	i	4
CCn1c(=S)sc2c(=O)[nH]c(C)nc21	-2	·	·	·	-1
Cc1ccc(-c2noc(CCC(=O)Nc3cc(C)ccn3)n2)cc1	-1	·	·	·	0
O=C(NCc1ccccn1)C1CC(=O)N(C2CCCC2)C1 (stereo unspecified)	0	·	·	·	-4
CCOC(=O)C1CCN(C(=O)CN2C(=O)C(CC)Oc3ccccc32)CC1 (stereo unspecified)	-2	·	·	·	1
Cn1c(=O)c2c(nc(SCCOc3ccc4ccc(=O)oc4c3)n2C)n(C)c1=O	-2	i	i	i	4
CSCCC(NC=C1C(=O)OC(C)(C)OC1=O)C(=O)O (stereo unspecified)	-7	·	·	·	2
COc1cccc(Nc2nnc(SCC(=O)N3CC(C)OC(C)C3)s2)c1 (stereo unspecified)	0	i	i	i	-10
COc1ccc(S(=O)(=O)N2CCCC2C(=O)Nc2ccc(C(C)=O)cc2)cc1 (stereo unspecified)	-1	·	·	·	-1
CCOC(=O)C(NC(=O)CC)(Nc1ccc(S(=O)(=O)Nc2cc(C)on2)cc1)C(F)(F)F (stereo unspecified)	3	·	·	·	-5
Cn1c(C(=O)N2CCC(C(=O)N3CCN(Cc4ccc5c(c4)OCO5)CC3)CC2)cc2sccc21	0	·	·	·	-1
COc1ccc(C2C3=C(CC(C)(C)CC3=O)Oc3ncn4nc(-c5cccnc5)nc4c32)cc1 (stereo unspecified)	4	i	i	i	1

Reformatted with two lines to a compound: part of the list above.
The line under a structure holds: FPRL1 ligand | VCAM-1 up imaging | VCAM-1 imaging | VCAM-1 down | FPR ligand
COc1ccc(OC)c(C2=NOC(C(=O)NCC3CCCO3)C2)c1 (stereo unspecified)
    3 | · | · | · | -2
COc1cccc(Nc2nnc(SCC(=O)N3CC(C)OC(C)C3)s2)c1 (stereo unspecified)
    0 | i | i | i | -10
CCOC(=O)C(NC(=O)CC)(Nc1ccc(S(=O)(=O)Nc2cc(C)on2)cc1)C(F)(F)F (stereo unspecified)
    3 | · | · | · | -5
O=C(NCc1ccccn1)C1CC(=O)N(C2CCCC2)C1 (stereo unspecified)
    0 | · | · | · | -4
CSCCC(NC=C1C(=O)OC(C)(C)OC1=O)C(=O)O (stereo unspecified)
    -7 | · | · | · | 2
